WNV NS2B-NS3 inh: WNV NS2B-NS3 proteinase inhibition | P06935 | WNV NS2B-NS3 protease, fluorogenic substrate Ex360/Em465; active compounds read low | z-score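 (tested at a level between 10 and 100 µM)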 | 65,000 tested, 0.18% active | AID 577;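 active = z-score at -3 or under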;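 note: score is relative to mean and spread of the compound wells of a plate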
Target sequence (P06935 1371-1501 limits assumed): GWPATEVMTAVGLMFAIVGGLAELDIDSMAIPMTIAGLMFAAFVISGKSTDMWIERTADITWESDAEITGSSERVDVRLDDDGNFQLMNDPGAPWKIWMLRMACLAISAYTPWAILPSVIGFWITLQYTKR
Target sequence (P06935 1502-1679 limits assumed): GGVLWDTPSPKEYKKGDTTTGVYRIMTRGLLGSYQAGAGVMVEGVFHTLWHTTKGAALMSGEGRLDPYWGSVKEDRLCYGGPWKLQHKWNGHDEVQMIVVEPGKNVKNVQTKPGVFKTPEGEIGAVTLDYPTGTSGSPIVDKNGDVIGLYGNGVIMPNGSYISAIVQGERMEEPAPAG
MT1-MMP promoter: MT1-MMP gene expression reporter suppression – cell-based, luciferase reporter, luminescence (AID 618). MT1-MMP promoter luciferase reporter cells, luminescence. calls from a first round at 10 µM; hits with a dose series show EC50 in µM. 87,000 tested, 0.62% active;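 active = over half of the reporter light lost at 10 µM or EC50 under 50 µM; inactive = the rest and hits that failed the dose series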;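 note: actives suppress MT1-MMP promoter-driven transcription so potencies describe inhibitors; HT1080 fibrosarcoma cells; overnight exposure; toxic or luciferase-blocking compounds were not removed from the actives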
Hsc70 ATP site: small molecules displacing fluorescent ligand from Hsc70 – biochemical, fluorescence polarization, primary screen (AID 568) | 83,000 tested, under 10 active | Hsc70 fluorescence polarization, probe displacement; higher % means a stronger effect; strong numbers were not always called active | displacement, % at 20 µM; hits with a dose series show IC50 in µM;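 active = displacement above 50% without optical interference and an IC50 on retest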;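 note: ATPase domain with a fluorescein-tagged ATP probe; 0% = vehicle and 100% = excess ADP; read after one hour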
* marks the source's active call; other numbers are inactive results; i = inactive; x = not tested or not shown; + = active, no number.

SMILES | WNV NS2B-NS3 inh | MT1-MMP promoter | Hsc70 ATP site
CCN1CCN(CCn2c(=S)[nH]c3cc4c(cc3c2=O)OCO4)CC1 | x | i | -8.1%
Cc1ccc(C2(C(F)(F)F)N=C3Sc4cc(C)cc(C)c4N3C(=O)N2)cc1 (stereo not given) | x | i | 8.2%
Cc1ccc(-c2nc(C3CCCN(S(=O)(=O)c4ccc(C(F)(F)F)cc4)C3)no2)cc1 (stereo not given) | -0.25 | i | -2.5%
CCCOc1ccc(C2/C(=C(/O)c3ccc(F)cc3)C(=O)C(=O)N2CCCN(C)C)cc1 (stereo not given) | 0.14 | i | -0.2%
O=C1CSC(=S)N1c1cccnc1 | 0.88 | i | 1.5%
Cc1nc2cc(NC(=O)NCCC3=CCCCC3)ccc2o1 | 0.77 | i | 2.2%
O=C(OCc1cc(=O)n2cc(Br)ccc2n1)C1COc2ccccc2O1 (stereo not given) | 1.18 | i | 6.8%
Cc1oc(-c2cccc(Cl)c2)nc1CN1CCCC(C(=O)NCCCN2CCOCC2)C1 (stereo not given) | 0.69 | i | 0.5%
COCCOC(=O)c1[nH]c2c(c1C)C(=O)CC(c1ccco1)C2 (stereo not given) | -0.53 | + | 2.0%
CCCCC(=O)Nc1ccc(NC(=O)CCCC)nc1 | -0.36 | i | 1.3%
CCN(Cc1nc2cc(OC)c(OC)cc2c(=O)[nH]1)C(=O)c1ccc(S(=O)(=O)N(C)C)cc1 | 0.31 | i | 3.4%
CCCOc1ccc(N2C(=O)CC(N(Cc3ccc(S(N)(=O)=O)cc3)C(=O)CC)C2=O)cc1 (stereo not given) | -0.17 | i | -1.3%
CCOc1cc(S(=O)(=O)N(CC)CC)ccc1Br | -1.3 | i | -6.2%
Cc1nn(-c2ccc(Cl)cc2)c2sc(C(=O)N3CCN(C(=O)c4ccco4)CC3)cc12 | -0.38 | i | 1.3%
COc1cccc(N2CCN(Cc3nc(N)nc(N4CCCc5ccccc54)n3)CC2)c1 | 0.14 | i | 0.8%
O=C(CCS(=O)(=O)c1cccc2nsnc12)N1CCN(Cc2ccc3c(c2)OCO3)CC1 | 0.9 | i | -1.3%
CN(C)c1ccc(NC(=O)c2cccc(N3C(=O)C4C5C=CC(C5)C4C3=O)c2)cc1 (stereo not given) | 0.2 | i | -3.0%
COc1cc2c(cc1OC)C1(Nc3c-2c(-c2ccccc2)nn3-c2ccccc2)C(=O)Nc2ccccc21 (stereo not given) | x | i | -6.4%
C=CCOc1ccc(/C(O)=C2/C(=O)C(=O)N(CCCn3ccnc3)C2c2cccs2)cc1 (stereo not given) | 0.39 | i | -5.0%
CC(C(=O)OCC(=O)Nc1ncc(Cl)cc1Cl)N1C(=O)c2ccccc2C1=O (stereo not given) | x | i | -0.4%
CCOC(=O)C1CCCN(c2nnnn2-c2ccccc2)C1 (stereo not given) | 0.58 | i | 0.1%
COCc1cc(C)n(CC(=O)Nc2ccccc2C(=O)OC)c(=O)c1C#N | -0.48 | i | -6.8%
O=S(=O)(NCCO)c1cccc2cccnc12 | -0.74 | i | 6.4%
CC(=O)Nc1ccc(NS(=O)(=O)c2ccc3ccccc3c2)cc1 | x | i | -0.7%
Cc1ccc2nc(SC(C)C(=O)NCc3ccco3)[nH]c2c1 (stereo not given) | x | i | 1.9%
SMILES | WNV NS2B-NS3 inh | MT1-MMP promoter | Hsc70 ATP site
CCCN(CCC)S(=O)(=O)c1cccc(C(=O)Nc2ccc3c(c2)OCO3)c1 | -1.4 | i | -5.6%
CCN(CCCNC(=O)COc1cc(=O)n(C)c2ccccc12)c1cccc(C)c1 | -1.41 | i | -7.2%
CCCCOC(=O)NC1CCS(=O)(=O)C1 (stereo not given) | x | i | -4.2%
Cc1onc(-c2ccccc2)c1C(=O)N1CCN(CCc2ccccc2)CC1 | 0.19 | i | 5.9%
CC(C)C(NC(=O)C1CCCCC1)C(=O)Nc1ccccn1 (stereo not given) | -1.11 | i | 0.2%
CN(C)c1ccnc(-n2cccc2/C=N/OCc2ccc(F)cc2Cl)c1C#N | x | i | 1.6%
O=C(O)C1CCCN1S(=O)(=O)c1ccc2ccccc2c1 (stereo not given) | -0.43 | i | -2.3%
O=C(Nc1nnc(CCN2CCOCC2)s1)c1ccccc1 | x | i | -3.2%
CCOC(=O)c1c(C)nc2ccccc2c1C | x | i | 7.4%
CCN(CC)c1ccc(CNc2ccc(Br)cn2)cc1 | 0.1 | i | 1.0%
CCOC(=O)c1cccc(C(=O)OCC)n1 | -1.56 | i | 0.8%
COC(=O)COn1c(SC(C)C)nc2ccccc2c1=O | x | i | -7.6%
O=C(COC(=O)c1ccco1)Nc1ccc(Br)cc1 | -0.75 | i | 0.6%
O=c1oc(-c2ccccc2)nc2c1cnn2-c1ccccc1 | 1.76 | i | 0.9%
COc1ccc(OC)c(NC(=O)NCc2ccc(F)cc2)c1 | -0.48 | i | -6.8%
O=C(COC(=O)c1cc(-c2cccs2)nc2ccccc12)NCc1ccco1 | -1.85 | i | -8.5%
CCCCOc1ccc(C(=O)N2CCCC2C(=O)O)cc1 (stereo not given) | -0.74 | i | -4.9%
COc1ccc(-c2noc(C3CCCN(S(=O)(=O)c4cccc(Cl)c4)C3)n2)cc1OC (stereo not given) | 1.06 | i | 5.8%
COC(=O)C1=C(C)N(c2cccc(Cl)c2)C(=O)C1 | 0.43 | i | 2.6%
O=S(=O)(c1cnc[nH]1)N1CCc2ccccc21 | 1 | i | -165.3%
CCOCCOC(=O)C1=C(C)N(C)C(=O)NC1c1ccccc1Cl (stereo not given) | 0.09 | i | -2.0%
CC1CCCC(N2C(=O)NC(NC(=O)c3ccco3)(C(F)(F)F)C2=O)C1C (stereo not given) | 0.79 | i | 0.5%
CC1CCC(NC(=O)C2CCN(C(=O)NC3CCCCC3)CC2)CC1 (stereo not given) | -0.58 | i | 0.6%
O=C(NC1CCCC1)c1ccc(COCC(F)(F)C(F)F)o1 | 0.28 | i | 6.9%
COC(=O)Cn1c(=O)n(CCc2ccccc2)c(=O)c2c3c(sc21)CCCC3 | x | i | 3.5%
SMILES | WNV NS2B-NS3 inh | MT1-MMP promoter | Hsc70 ATP site
CC(=O)C1=C(O)C(=O)N(c2nnn(C)n2)C1c1cccs1 (stereo not given) | -0.26 | i | 3.1%
CCCCCOc1ccc(C(=O)C(c2ccccc2)N2CCOCC2)cc1 (stereo not given) | x | i | 5.0%
O=C(CSc1ncnc2c1nnn2-c1ccc(F)cc1)N1CCN(c2ccccc2)CC1 | -0.4 | i | 0.2%
C=CCN1C(=O)C2(C(C(=O)c3ccc(C)o3)=C(O)C(=O)N2CCCN2CCOCC2)c2ccccc21 (stereo not given) | 0.74 | i | -0.2%
N/C(CCN1CCOCC1)=N/O | 0.42 | i | 0.2%
Cc1ccc(CN(C(=O)Cn2nnc3ccccc32)C(C(=O)NCc2ccco2)c2cccs2)cc1 (stereo not given) | 0.56 | i | 0.9%
O=C(c1cc2ccccc2o1)N1CCN=C1SCc1cccnc1 | 1.24 | i | -1.2%
Cc1csc(NC(=O)C2C3C=CC(C3)C2C(=O)O)n1 (stereo not given) | x | i | -1.3%
CCC(C)Sc1nc(O)cc(=O)[nH]1 (stereo not given) | -1.1 | i | -2.1%
Cc1cc(C(=O)NC(C)c2ccc3c(c2)OCO3)cs1 (stereo not given) | 0.9 | i | -1.1%
COc1ccc(C(=O)N2CCc3ccccc32)cc1 | x | i | -0.2%
CCN1CC=C2C(C#N)=C(N)C(C#N)(C#N)C(CCc3ccccc3)C2C1 (stereo not given) | -0.86 | i | 57.1%
Cn1cccc1C(C(=O)NC1CCCCC1)N(C(=O)Cc1cccs1)C1CC1 (stereo not given) | -0.91 | i | 0.6%
Cc1ccc(C(=O)c2cc(C)sc2NC(=O)CN2CCN(C(=O)c3ccco3)CC2)cc1 | -0.97 | i | -4.2%
COCCOc1nc2c(c(=O)n(C)c(=O)n2C)n1Cc1cccc(OC)c1 | x | i | 3.7%
Cc1ccc(N(CC(N)=O)C2SC(=O)N(C)C2=O)cc1 (stereo not given) | -0.31 | i | 3.3%
COc1ccc(-c2cc(C(=O)N3CCCc4ccccc43)no2)cc1 | 0.95 | i | 0.0%
CN1CCN(S(=O)(=O)c2ccc3ccccc3c2)CC1 | -1.2 | i | -2.0%
CCCCN(C)C(=O)C1CCN(C/C(C)=C/c2ccccc2)CC1 | 0.09 | i | -1.1%
CC(CCc1ccccc1)NC(=O)CSc1nnnn1C (stereo not given) | 0.15 | i | 1.6%
COc1cccc(OCc2cc(C3Nc4ccccc4C(=O)N3Cc3ccco3)ccc2OC)c1 (stereo not given) | x | i | -10.9%
CCOC(=O)C1CCCN(Cc2ccc(OCC)cc2)C1 (stereo not given) | x | i | 3.7%
CCn1c(N)nc2ccccc21 | -1.52 | i | 1.2%
COc1ccc(OC)c(Nc2nc(N)nc(-c3cc4ccccc4o3)n2)c1 | -0.51 | i | 17.3%
COc1cccc(NC(=O)Cn2c(=O)c3c(ncn3Cc3ccccc3)n(Cc3ccccc3)c2=O)c1 | x | i | 6.0%
SMILES | WNV NS2B-NS3 inh | MT1-MMP promoter | Hsc70 ATP site
NC(=O)c1ccccc1NC(=O)CCc1ccccc1 | -0.14 | i | -0.6%
Cc1sc(NC(=O)c2ccco2)c(C(c2cccnc2)N2CCCC2)c1C (stereo not given) | x | i | 2.6%
O=[N+]([O-])c1cccc(S(=O)(=O)N2CCC(c3nc(-c4ccncc4)no3)CC2)c1 | x | i | 2.7%
COCCCNc1nc2c(c(=O)[nH]c(=O)n2C)n1CC(O)COc1ccccc1C (stereo not given) | 0.84 | i | -0.1%
COC(=O)c1ccc(Oc2cc(C)nc(-n3nc(C)cc3C)n2)cc1 | 0.82 | + | 2.9%
CCOC(=O)C1=C(CNC2CCCCC2)NC(=O)NC1c1cc(C)ccc1C (stereo not given) | -0.35 | i | 0.4%
O=C1Nc2ccccc2C12OCC(COc1ccc(Cl)cc1)O2 (stereo not given) | 0.42 | i | -7.9%
CCOc1cc(-c2cn(S(=O)(=O)c3cccc4nsnc34)nc2N)cc(OCC)c1OCC | x | i | -2.7%
CC(C)CNS(=O)(=O)c1ccc(CCC(=O)NCC2CCCO2)cc1 (stereo not given) | -0.34 | i | -5.1%
Cc1sc2nc(C)n(/N=C/c3ccc(O)cc3)c(=O)c2c1C | x | i | -0.6%
O=C(c1cccc(S(=O)(=O)N2CCCCC2)c1)N1CCN(S(=O)(=O)c2ccc(F)cc2)CC1 | x | i | 7.4%
O=C(c1ccccc1F)N1CCN(CC2CC3C=CC2C3)CC1 (stereo not given) | 0.37 | i | 3.2%
Cc1ccc(C)c(N(C(=O)Cn2nnc3ccccc32)C(C(=O)NCc2ccco2)c2ccncc2)c1 (stereo not given) | 1.71 | i | -4.8%
COc1ccc(CCNC(=O)c2ccco2)cc1 | 1.61 | i | 3.8%
CCC1CCCCN1CCCNC(=O)C1CCC(=O)N1Cc1ccc(C)cc1 (stereo not given) | -0.96 | i | -0.6%
CCN(CC)C(=O)C1CCCN(Cc2ccc(OC)c(C)c2)C1 (stereo not given) | -0.97 | i | -3.1%
CCCCS(=O)CC(COCc1ccccc1)OC(=O)CSc1nc(C)cc(C)n1 (stereo not given) | -1 | i | -4.9%
COC(=O)c1scc(C)c1N/N=C(\C)c1ccc(F)cc1F | x | i | 1.1%
CC(=O)CSc1ncnc2nc[nH]c12 | 0.88 | i | -2.2%
Cc1cc(NC(=O)c2ccc(COc3ccc(Cl)c(C)c3)o2)no1 | 0.45 | i | -5.1%
CC1(C)CC(N(Cc2cccs2)C(=O)c2ccco2)CCO1 (stereo not given) | 0.44 | i | 0.5%
CCOC(=O)c1ccc(N2C(=O)c3n[nH]c(C)c3C2c2ccc(O)cc2)cc1 (stereo not given) | -0.1 | i | -5.8%
Cc1ccccc1CSCC(Nc1ccc(C(=O)O)cc1[N+](=O)[O-])C(=O)O (stereo not given) | x | i | -0.3%
CCc1cc2c(NCC3CCCO3)nc(C)nc2s1 (stereo not given) | x | i | 1.3%

Individual results from the entries so far:
COc1ccc(OC)c(NC(=O)NCc2ccc(F)cc2)c1 – WNV NS2B-NS3 inh: -0.48
CCOC(=O)c1ccc(N2C(=O)c3n[nH]c(C)c3C2c2ccc(O)cc2)cc1 (stereo not given) – WNV NS2B-NS3 inh: -0.1

Structures above with fluorine:
SMILES | WNV NS2B-NS3 inh | MT1-MMP promoter | Hsc70 ATP site
Cc1ccc(C2(C(F)(F)F)N=C3Sc4cc(C)cc(C)c4N3C(=O)N2)cc1 (stereo not given) | x | i | 8.2%
Cc1ccc(-c2nc(C3CCCN(S(=O)(=O)c4ccc(C(F)(F)F)cc4)C3)no2)cc1 (stereo not given) | -0.25 | i | -2.5%
CCCOc1ccc(C2/C(=C(/O)c3ccc(F)cc3)C(=O)C(=O)N2CCCN(C)C)cc1 (stereo not given) | 0.14 | i | -0.2%
CN(C)c1ccnc(-n2cccc2/C=N/OCc2ccc(F)cc2Cl)c1C#N | x | i | 1.6%
COc1ccc(OC)c(NC(=O)NCc2ccc(F)cc2)c1 | -0.48 | i | -6.8%
CC1CCCC(N2C(=O)NC(NC(=O)c3ccco3)(C(F)(F)F)C2=O)C1C (stereo not given) | 0.79 | i | 0.5%
O=C(NC1CCCC1)c1ccc(COCC(F)(F)C(F)F)o1 | 0.28 | i | 6.9%
O=C(CSc1ncnc2c1nnn2-c1ccc(F)cc1)N1CCN(c2ccccc2)CC1 | -0.4 | i | 0.2%
O=C(c1cccc(S(=O)(=O)N2CCCCC2)c1)N1CCN(S(=O)(=O)c2ccc(F)cc2)CC1 | x | i | 7.4%
O=C(c1ccccc1F)N1CCN(CC2CC3C=CC2C3)CC1 (stereo not given) | 0.37 | i | 3.2%
COC(=O)c1scc(C)c1N/N=C(\C)c1ccc(F)cc1F | x | i | 1.1%

Screens: PubChem BioAssay, several laboratories
